StopGo FLuc – lowers the firefly signal of an FMDV 2A StopGo reporter; HEK cells with a luciferase reporter of 2A StopGo recoding; Potency, µM (series often up to 57.5 µM), for the others: at the top dose signal change, negative = less light; actives 0.23% (n = 120,000); AID 1745856; active = well fitted falling curve with a large enough effect; inconclusive = small, poorly fitted or top-dose-only effect; inactive = no such curve, though single readings can be large or run the other way; also: nearly all actives have a fitted effect of over 60% in size; overnight with compound
2A Renilla – FMDV 2A StopGo reporter, Renilla signal | actives 0.32% (n = 120,000) | Potency, µM (doses to about 57.5 µM), without a hit: at the top dose signal change, negative = less light | HEK cells with a luciferase reporter of 2A StopGo recoding; active means well fitted falling curve with a large enough effect; inconclusive means small, poorly fitted or top-dose-only effect; inactive means no such curve, though single readings can be large or run the other way; also: nearly all actives have a fitted effect of over 55% in size; overnight with compound
* marks the source's active call; other numbers are inactive results; ? = inconclusive; [ ] = another dose, or the depositor's remark. % is scaled to controls: 0 for no effect and ±100 for the full control effect; potency is read from the fitted curve at half-maximal effect.

SMILES	StopGo FLuc	2A Renilla
CC1=C(C(=O)OC(C)(C)C)C(c2ccc(Cl)cc2)C(C#N)=C(N)O1 (stereo not given)	5%	5%
CN1C(=O)c2ccccc2C1=O	-4%[22.9 µM]	-8%[114 µM]
CC(C)(C)C(CCC(=O)O)CC(=O)O (stereo not given)	0%	11%
O=C(COc1ccc(-c2nnc(Nc3ccc(F)cc3)c3ccccc23)cc1)N1CCCCC1	1%	-3%
Cc1onc(-c2ccccc2F)c1C(=O)NCc1cccs1	-4%	-1%
Cc1ccccc1-c1nn2c(=O)cc(CN3CCN(C(=O)c4ccccc4Br)CC3)nc2s1	-5%	-4%
CCN(C(=O)C1CCN(S(=O)(=O)c2cc(Br)cc3c2N(C(C)=O)CC3)CC1)c1cccc(C)c1	-19%	35%[activator]
CCOC(=O)c1cnc2ccc(Br)cc2c1NCCN1CCOCC1	5%	-4%
COc1cc(CN2C(=O)C(=O)c3cccc(C)c32)ccc1OCCC(C)C	7%	8%
COc1ccc(CNC(=O)CCc2ncc(-c3ccc(C)cc3)o2)cc1	8%	-8%
O=C(NCC(c1ccccc1)N1CCCCC1)c1cc2ccccc2oc1=O (stereo not given)	-2%	-14%
Cc1nc2ccc(S(=O)(=O)CCC(=O)Nc3ccc(Cl)cc3)cc2s1	21%	-2%
Cn1c(NC(=O)c2ccccc2F)cc(=O)n(C)c1=O	1%	-7%
COCc1nnc(NC(=O)CCn2ccc3cc(Br)ccc32)s1	4%	20%
CCC(C(=O)NCc1ccc(SC)cc1)n1nc(C)c2c(C)n(-c3ccccc3)nc2c1=O (stereo not given)	?	-20%
CCCNC(=O)c1ccccc1OCc1ccc(Cl)cc1	-1%	-4%
Cc1ccc(/C=N/NC(=O)C(O)(c2ccccc2)c2ccccc2)s1	242%[activator]	21%
Cc1cccc(C(=O)NCc2sccc2C)n1	0%	79%[activator]
O=C(Nc1ccccc1)c1ccc(CSc2cccc[n+]2[O-])cc1	100%[activator]	9%
CCOc1ccc(C(c2c(O)cc(C)n(CCOC)c2=O)N2CCN(c3ccccc3)CC2)cc1 (stereo not given)	-18%	-3%
CC1CCCN(C(=O)COc2ccccc2-c2noc(-c3ccc(Cl)cc3)n2)C1 (stereo not given)	0%	-5%
Cc1c(Cl)cccc1NC(=O)NCCCN(C)CC(F)(F)F	43%[activator]	26%
Cc1ccc(C)c(NC(=O)CCCN2C(=O)C(c3ccccc3)Oc3cccnc32)c1 (stereo not given)	-6%	2%
N#CC1=C(SCC(=O)c2ccc(Br)cc2)NC(=O)C(C#N)C12CCCCC2 (stereo not given)	?	?
COc1ccc(C)cc1NC(=O)CSc1nc2ccccc2nc1N1CCOCC1	5%	11%
CCCCCCCC(=O)N/N=C/C(C)=N/NC(=O)CCCCCCC	-3%	5%
Cc1ccc(NC(=O)c2nnn(CC(=O)Nc3ccc(C)c(Cl)c3)c2N)c(C)c1	0%	-1%
COc1cc2c(cc1OC)C(c1ccccc1)N(CC(=O)Nc1ccccc1)CC2 (stereo not given)	?	?
CCCOc1nc2ccccc2nc1C(C#N)C(=O)NCc1ccccc1 (stereo not given)	49%[activator]	48%[activator]
CCn1cnc2c1c(=O)n(CC(=O)Nc1ccc3c(c1)OC(F)(F)O3)c(=O)n2Cc1ccccc1	-2%	14%

Reprinted from the entries so far for reference:
SMILES	StopGo FLuc	2A Renilla
CCCNC(=O)c1ccccc1OCc1ccc(Cl)cc1	-1%	-4%
Cc1ccc(/C=N/NC(=O)C(O)(c2ccccc2)c2ccccc2)s1	242%[activator]	21%

25 consecutive entries out of the list so far:
SMILES	StopGo FLuc	2A Renilla
O=C(COc1ccc(-c2nnc(Nc3ccc(F)cc3)c3ccccc23)cc1)N1CCCCC1	1%	-3%
Cc1onc(-c2ccccc2F)c1C(=O)NCc1cccs1	-4%	-1%
Cc1ccccc1-c1nn2c(=O)cc(CN3CCN(C(=O)c4ccccc4Br)CC3)nc2s1	-5%	-4%
CCN(C(=O)C1CCN(S(=O)(=O)c2cc(Br)cc3c2N(C(C)=O)CC3)CC1)c1cccc(C)c1	-19%	35%[activator]
CCOC(=O)c1cnc2ccc(Br)cc2c1NCCN1CCOCC1	5%	-4%
COc1cc(CN2C(=O)C(=O)c3cccc(C)c32)ccc1OCCC(C)C	7%	8%
COc1ccc(CNC(=O)CCc2ncc(-c3ccc(C)cc3)o2)cc1	8%	-8%
O=C(NCC(c1ccccc1)N1CCCCC1)c1cc2ccccc2oc1=O (stereo not given)	-2%	-14%
Cc1nc2ccc(S(=O)(=O)CCC(=O)Nc3ccc(Cl)cc3)cc2s1	21%	-2%
Cn1c(NC(=O)c2ccccc2F)cc(=O)n(C)c1=O	1%	-7%
COCc1nnc(NC(=O)CCn2ccc3cc(Br)ccc32)s1	4%	20%
CCC(C(=O)NCc1ccc(SC)cc1)n1nc(C)c2c(C)n(-c3ccccc3)nc2c1=O (stereo not given)	?	-20%
CCCNC(=O)c1ccccc1OCc1ccc(Cl)cc1	-1%	-4%
Cc1ccc(/C=N/NC(=O)C(O)(c2ccccc2)c2ccccc2)s1	242%[activator]	21%
Cc1cccc(C(=O)NCc2sccc2C)n1	0%	79%[activator]
O=C(Nc1ccccc1)c1ccc(CSc2cccc[n+]2[O-])cc1	100%[activator]	9%
CCOc1ccc(C(c2c(O)cc(C)n(CCOC)c2=O)N2CCN(c3ccccc3)CC2)cc1 (stereo not given)	-18%	-3%
CC1CCCN(C(=O)COc2ccccc2-c2noc(-c3ccc(Cl)cc3)n2)C1 (stereo not given)	0%	-5%
Cc1c(Cl)cccc1NC(=O)NCCCN(C)CC(F)(F)F	43%[activator]	26%
Cc1ccc(C)c(NC(=O)CCCN2C(=O)C(c3ccccc3)Oc3cccnc32)c1 (stereo not given)	-6%	2%
N#CC1=C(SCC(=O)c2ccc(Br)cc2)NC(=O)C(C#N)C12CCCCC2 (stereo not given)	?	?
COc1ccc(C)cc1NC(=O)CSc1nc2ccccc2nc1N1CCOCC1	5%	11%
CCCCCCCC(=O)N/N=C/C(C)=N/NC(=O)CCCCCCC	-3%	5%
Cc1ccc(NC(=O)c2nnn(CC(=O)Nc3ccc(C)c(Cl)c3)c2N)c(C)c1	0%	-1%
COc1cc2c(cc1OC)C(c1ccccc1)N(CC(=O)Nc1ccccc1)CC2 (stereo not given)	?	?

Next section:
SMILES	StopGo FLuc	2A Renilla
CCCN1CCN(CCCNC(=O)c2c(C)nn(-c3ccc(F)cc3)c2-n2cccc2)CC1	9%	2%
Cc1ccc(-c2nnc3c4ccccc4c(C)nn23)cc1NC(=O)c1ccccc1	33%[activator]	-2%
O=C(Nc1ccc2nc(SCc3ccccc3)sc2c1)c1cccc(F)c1	15%	6%
Cc1cc(C)cc(OCCSc2nc3ccc(NC(=O)COc4ccccc4)cc3s2)c1	-18%	-13%
COc1ccc(NC(=O)c2c(-c3ccccc3)oc3ccc(OC)cc23)cc1	24%	48%[activator]
Cc1ccc(-c2nn3c(-c4ccccc4)nnc3c3ccccc23)cc1	-15%	?
Cc1ccc(-c2c(C(N)=O)c(C)nc3sc4c(c23)CCC4)cc1	-20%	-15%
Oc1c(Br)cc(Cl)cc1Cc1cc(Cl)cc(Br)c1O	?	3.5µM*
CCc1ccc(NC(=O)CSC2=Nc3ccccc3C3=NC(CC(=O)NC4CCCCC4)C(=O)N23)cc1 (stereo not given)	14%	-16%
O=C(CCC1N=C2c3ccccc3N=C(SCc3ccccc3F)N2C1=O)NCc1ccc(F)cc1 (stereo not given)	-11%	-2%
CCC(=O)c1ccc(Oc2cc(C#N)c(C#N)cc2N2CCOCC2)cc1	18%	6%
COc1ccc(CCN2C(=O)c3oc4ccc(F)cc4c(=O)c3C2c2ccc(C(C)(C)C)cc2)cc1 (stereo not given)	-12%	-6%
COc1ccc(NC(=O)C2CCN(S(=O)(=O)c3ccc4[nH]c(=O)ccc4c3)CC2)cc1Cl	-15%	-6%
CCc1ccccc1NC(=O)c1ccc2[nH]c(C)c(C)c2c1	243%[activator]	-1%
O=C(/C=C/c1ccc(-c2cc(Cl)ccc2Cl)o1)c1ccccc1	-4%	-3%
O=C(Cn1c(=O)n(-c2ccccc2)c(=O)c2c3c(sc21)CCCC3)Nc1ccc(F)cc1F	4%	-1%
CN(CCOC(=O)/C=C/c1ccccc1)Cc1ccccc1	9%	0%
COc1cccc(CNC(=O)c2ccc3c(=O)n4nc(Nc5ccccc5)sc4nc3c2)c1	-3%	7%
CSc1ccccc1C(=O)Nc1ccc(F)cc1F	55%[activator]	15%
Cc1ccc(NC(=O)Cc2ccc3c(c2)OCCO3)cc1S(=O)(=O)N1CCCCC1	?	-3%
CCn1cc2nc(SCC(=O)Nc3ccccc3C(F)(F)F)n(Cc3ccc(C)cc3)c(=O)c2n1	23%	50%[activator]
CON(C)C(=O)c1cc(-c2cc(C)oc2C)nc2onc(C)c12	-4%	0%
CC1CCCCN1C(=O)Cn1ncc2c3ccccc3n(Cc3ccccc3F)c2c1=O (stereo not given)	15%	-13%
CCc1ccccc1NC(=O)C(CC)Sc1ncnc2c1sc1ccccc12 (stereo not given)	-13%	-9%
NCCCc1c[nH]c2ccccc12	13%	1%
Cc1nn(CC(=O)N(C)Cc2ccccc2C(F)(F)F)c(=O)c2ccccc12	?	?
CCN1CCN(C(C(=O)O)c2c[nH]c3ccc(Cl)cc23)CC1 (stereo not given)	-9%	-13%
c1ccc(C(CNCc2cccnc2)N2CCCC2)cc1 (stereo not given)	-19%	-9%
COc1ccc(OC)c(NC(=O)CSc2nc3ccccc3c(=O)n2CCC(=O)NC2CCCCC2)c1	-17%	-11%
CCOC(=O)C(C#N)C(c1ccco1)c1ccccc1OC (stereo not given)	18%	95%[activator]
COc1ccc(-c2ocnc2C(=O)Nc2ccccc2C)cc1	25%	1%
CC(NC(=O)CN(C)S(=O)(=O)c1ccc2c(c1)c(=O)n(C)c(=O)n2C)c1ccccc1 (stereo not given)	13%	0%
CC(=O)c1ccc(NC(=O)c2cccc(N(C)C)c2)cc1	192%[activator]	13%
COc1cccc(OC)c1OC(=O)COc1ccc2oc3c(c2c1)CCCC3	-3%	4%
CCOc1ccccc1NS(=O)(=O)c1cc(-c2c(C)nn3c2NC(=O)CCC3=O)ccc1OC	-15%	70%[activator]
CC(C)(C)CC(C)(C)c1ccc(OCCOCC[N+](C)(C)Cc2ccccc2)cc1	?	?
O=C1CCC(C(=O)OCC(=O)c2c[nH]c3ccccc23)=NN1	-14%	-11%
CCOC(=O)C1=C(COC(=O)c2oc3c(F)cccc3c2C)NC(=O)NC1C (stereo not given)	0%	20%[1.06 µM]
O=[N+]([O-])c1ccc(-c2nc(Nc3ccccc3)c3ccccc3n2)cc1	54%[activator]	-13%
Cc1cc2ncn(-c3ccc([N+](=O)[O-])cc3Cl)c2cc1C	21%	18%
CCOc1ccc(CC(=O)NCCc2sc3nc(-c4ccc(OC)cc4)nn3c2C)cc1	4%	-6%
Cc1cccc(/C=C/C(=O)O)c1C	14%	17%
COc1cc(C(=O)N(C)Cc2ccccc2)ccc1OCc1ccccc1	36%[activator]	131%[activator]
COC(=O)c1nc2ccccc2nc1N1CCN(c2ccc(Cl)cc2)CC1	?	?
COc1ccc2c(=O)c(Oc3ccccc3OC)c(C)oc2c1	34%[activator]	3%
Cc1ccc(OCC(=O)OCc2cc(=O)n3c(C)csc3n2)cc1	-8%	1%
O=C(NC1CCCCCCC1)c1cc(-c2ccc(Cl)c(Cl)c2)nc2ccccc12	13%	-10%[1.06 µM]
NC(=O)CNS(=O)(=O)/C=C/c1ccc(Cl)cc1	9%	12%
COc1ccc(C(=O)NCC(c2cccnc2)N2CCN(c3ccccc3)CC2)cc1 (stereo not given)	-2%	4%
CCOc1ccc(N(Cc2ccccc2)C(=O)c2nc(SCC)ncc2Cl)cc1	0%	-5%
CNS(=O)(=O)c1cc(NC(=O)c2cccc(OCc3c(C)noc3C)c2)ccc1C	2%	214%[activator]
Cc1ccc(Cl)cc1NC(=O)C(Cc1ccccc1)NS(=O)(=O)c1cccc2nsnc12 (stereo not given)	-17%	75%[activator]
Cn1c(C(=O)NCc2ccc(F)cc2)cc2cc(Cl)ccc21	-18%	?
Cc1ccc2oc3c(c(=O)c2c1)C(c1ccc(O)cc1)N(Cc1ccc2c(c1)OCO2)C3=O (stereo not given)	-3%	13%
CCC(C)Sc1ccc(N)c(C(F)(F)F)c1 (stereo not given)	6%	2%
COc1ccc(NC(=O)CSc2nc(-c3cccs3)cc(C(F)(F)F)n2)cc1Cl	-8%	-1%
O=S(=O)(Nc1cccc(-c2ccc(N3CCCC3)nn2)c1)c1ccc(F)c(C(F)(F)F)c1	3%	64%[activator]
Brc1cccc(-c2nnc(CN3CCN(c4ccccn4)CC3)o2)c1	2%	-12%
O=C1CCCC2=C1C(c1ccc(F)cc1F)Nc1nonc1N2 (stereo not given)	-17%	2%

The list is partial; the hit share may differ from the screen's.
